Screening results: PubChem BioAssay, National Center for Advancing Translational Sciences (NCATS)
Cruzain inh Det – blocks cruzain activity in presence of Triton detergent; P25779; 200,000 tested, 0.43% active; purified cruzain, Z-FR-AMC fluorescence, 0.01% Triton; Potency, µM, inactives show max response, negative = inhibition, usual class: inhibitors; AID 1478;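 note: plate controls were neutral wells for no effect and buffer without enzyme for full effect; nearly all actives have a fitted effect of over 40% in size; top concentration of the series not given in the record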
Target sequence (P25779 123-467 limits assumed): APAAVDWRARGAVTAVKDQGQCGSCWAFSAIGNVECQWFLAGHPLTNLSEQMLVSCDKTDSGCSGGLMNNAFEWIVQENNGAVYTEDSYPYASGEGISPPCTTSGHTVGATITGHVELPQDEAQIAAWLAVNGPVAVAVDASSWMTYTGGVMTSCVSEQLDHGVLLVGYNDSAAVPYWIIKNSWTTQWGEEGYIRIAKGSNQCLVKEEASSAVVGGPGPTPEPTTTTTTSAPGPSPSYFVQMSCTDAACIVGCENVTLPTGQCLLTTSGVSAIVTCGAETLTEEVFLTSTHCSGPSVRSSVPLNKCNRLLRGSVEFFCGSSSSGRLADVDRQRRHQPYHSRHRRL
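Read-out: AMC fluorescence (360 nm excitation, 450 nm emission), four reads over 2 min, first-to-third difference used. Conditions: cruzain 1.5 nM, Z-FR-AMC 2 uM, pH 5.5 acetate, 5 mM DTT, 0.01% Triton X-100.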
Marburg entry inh – inhibitors of Marburg virus binding or cell entry. 300,000 tested, 1.8% active. AID 540276. Potency, µM (doses to about 37.8 µM), inactives show at the highest dose activity change, negative = inhibition, actives largely listed as inhibitors. Marburg virus pseudotyped entry inhibition, cell reporter; control for the full effect not named in the record; about a third of the inactives were read at about 46 µM; active = well fitted inhibition curve with a large enough effect; inconclusive = small, poorly fitted or top-dose-only effect, or effect the other way; inactive = flat fitted curve, though single readings scatter; tested in HEK293 cells; about a fifth of its hits are not listed in these tables; note: % is set by controls: 0 for no effect and ±100 for the full control effect; luciferase read-out
RE007 growth inh – less growth of the S. pombe RE007 Vpr strain. AID 651644. Potency, µM (series often up to 92.2 µM), for inactives: at the top dose activity change, negative = less growth. 360,000 tested, 0.21% active. S. pombe RE007 Vpr strain, BacTiter-Glo ATP luminescence, 24 h; control for the full effect not named in the record; active = well fitted falling curve with a large enough effect; inconclusive = small, poorly fitted or top-dose-only effect; inactive = no such curve, though single readings can be large or run the other way;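 note: % is set by controls: 0 for no effect and ±100 for the full control effect; nearly all actives have a fitted effect of over 50% in size; the assay follows cell death caused by Vpr and the record does not say whether a fall means rescue or toxicity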
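Fission yeast RE007 carrying one integrated HIV-1 vpr copy, seeded at OD 0.01 in PMG+AL medium with 23 nL pinned compound. Grown 24 h at 30 degrees; viability read by BacTiter-Glo luminescence after 5 min.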
SARS PLpro yeast – inhibitors of SARS-CoV papain-like protease in yeast | S. cerevisiae expressing SARS-CoV PLpro, growth rescue; control for the full effect not named in the record | Potency, µM (top dose mostly 32.9 µM), without a hit: at the top dose activity, positive = growth rescue | 330,000 tested, 0.19% active; active means well fitted rising curve with a large enough effect; inconclusive means small, poorly fitted or top-dose-only effect; inactive means no such curve, though single readings can be large or run the other way; note: 0% is about no effect; nearly all actives have a fitted effect of over 55% in size; growth read by luminescence after 48 h
Cruzain inh noDet – cruzain (T. cruzi) inhibition without detergent; P25779; 200,000 tested, 2.3% active; purified cruzain, Z-FR-AMC fluorescence, no detergent; Potency, µM, for the others: max response, negative = inhibition, actives largely listed as inhibitors;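 note: plate controls were enzyme without inhibitor for no effect and buffer without enzyme for full effect; nearly all actives have a fitted effect of over 40% in size; top concentration of the series not given in the record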
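Purified cruzain at 1.5 nM, pre-incubated 15 min with compound at room temperature in 100 mM sodium acetate pH 5.5, 5 mM DTT, 0.00005% Triton X-100. Reaction started with 2 uM Z-FR-AMC; AMC fluorescence increase over 60 s gives rate.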
Lassa entry inh – blocks Lassa virus binding to or entry into cells; Potency, µM (titrated, usually from 37.9 µM), without a hit: at the top dose activity change, negative = inhibition, most hits filed as inhibitors; Lassa virus pseudotype entry inhibition, cell reporter; control for the full effect not named in the record; 300,000 tested, 1.2% active; active means well fitted inhibition curve with a large enough effect; inconclusive means small, poorly fitted or top-dose-only effect, or effect the other way; inactive means flat fitted curve, though single readings scatter; tested in HEK293 cells; note: % is set by controls: 0 for no effect and ±100 for the full control effect; nearly all actives have a fitted effect of over 50% in size; luciferase read-out
NS1 function inh – blocks influenza NS1 protein function. S. cerevisiae slowed by influenza A NS1, growth recovery by OD600. Potency, µM (series often up to 46.1 µM), for inactives: at the highest dose activity, positive = more growth. 270,000 tested, 0.4% active. AID 2326; active means well fitted rising curve with a large enough effect; inconclusive means small, poorly fitted or top-dose-only effect; inactive means no such curve, though single readings can be large or run the other way; note: nearly all actives have a fitted effect of over 50% in size
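Read-out: OD600 growth recovery of NS1-expressing budding yeast. Cells grown overnight at 30C in -URA glucose medium, washed, resuspended and diluted 1:100 in 2% galactose assay medium, pH 6.0. Same strain lacking NS1 served as positive control.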
StopGo reporter – lowers the luciferase signal of an FMDV 2A StopGo reporter. human cells with a luciferase reporter of 2A StopGo recoding; control for the full effect not named in the record. AID 1159524. Potency, µM (highest dose often 57.9 µM), without a hit: at the highest dose signal change, negative = less light. 410,000 tested, 1.2% active; active = well fitted falling curve with a large enough effect; inconclusive = small, poorly fitted or top-dose-only effect; inactive = no such curve, though single readings can be large or run the other way; tested in HEK293T cells; note: % is set by controls: 0 for no effect and ±100 for the full control effect; nearly all actives have a fitted effect of over 45% in size; luciferase light after 4 h
The depositor's hits bear a star; ? = inconclusive; · = no result given; [ ] = dose if it differs, or a comment. Unless noted, calls come from the whole dose curve; as a rule, active = well fitted curve in the direction sought with a large enough effect; inconclusive = small, poorly fitted or top-dose-only effect, or another doubt; inactive = no such curve, though single readings can be large; an effect the other way counts as inactive or inconclusive. Potency is the fitted concentration of half-maximal effect. The order is random; 4.7% or so of the library scored in one or more.

SMILES	Cruzain inh Det	Marburg entry inh	RE007 growth inh	SARS PLpro yeast	Cruzain inh noDet	Lassa entry inh	NS1 function inh	StopGo reporter
Cc1ccc(S(=O)(=O)N2CCCC2)cc1C(=O)O	6.9%	13.1%	2.0%	5.3%	-9.2%	6.4%	22.6%	3.4%
Cn1nnc2cc(C(=O)N3CCC(c4ccccc4)C3)ccc21 (centres undefined)	10.7%	1.4%	-7.9%	-3.4%	10.1%	11.7%	9.1%	12.7%
COc1ccc(OCC(=O)NC(=S)Nc2ccccc2F)cc1	-9.9%	-11.4%	-13.7%	2.4%	-14.6%	23.1%	8.3%	54.5%[activator]
Nc1nnnn1/N=C/c1ccccn1	0.6%	25.6%	3.7%	11.5%	-2.5%	10.7%	8.9%	13.7%
CCC1(C)SC(N)=NN1C(C)=O (centres undefined)	·	24.0%[46.1 µM]	1.3%	1.1%	·	3.4%	-0.4%	-2.6%
COc1ccc(NC(=O)c2ccc(-c3nn(C)c(=O)c4ccccc34)cc2)cc1C(N)=O	·	·	-2.3%	0.4%	·	·	-1.2%	-13.4%
CCN1CCN(C(=S)Nc2ccc([N+](=O)[O-])cc2)CC1	-8.7%	24.1%	-16.4%	-3.9%	-0.1%	4.7%	5.5%	48.2%[activator]
CSc1ccc(CCNC(=O)CCc2c(C)nc3ncnn3c2C)cc1	1.0%	16.8%[46.1 µM]	·	·	-7.4%	7.0%[46.1 µM]	·	-14.8%
CCOc1ccc(NC(=O)/C=C\C(=O)N(c2ccc(C(C)C)cc2)C(C(=O)NCc2ccco2)c2ccc(F)cc2)cc1 (centres undefined)	1.3%	·	·	·	4.8%	-24.9%[46.1 µM]	·	-15.5%
O=C(CSc1nnc(-c2cccs2)o1)Nc1cccc(S(=O)(=O)N2CCCCC2)c1	-1.1%	15.4%	11.2%	6.1%	-1.2%	-2.9%	2.2%	-8.4%
CC1(c2ccccc2)NC(=O)N(N)C1=O (centres undefined)	·	15.6%[46.1 µM]	5.8%	-0.3%	·	-1.0%	5.3%	-9.1%
COc1cccc(OC)c1C(=O)Nc1ccc2c(c1)OCCO2	-5.0%	2.0%	-1.1%	7.7%	-3.6%	-7.5%	-12.4%	-3.0%
Cn1c(-c2sc3ccccc3c2Cl)n[nH]c1=S	-3.8%	18.3%	-26.7%	-25.9%	1.3%	0.5%	-165.9%	-23.2%
COc1cccc(CNC(=O)C(CC(C)C)NC(=O)c2ccccc2C)c1 (centres undefined)	·	-1.7%	-3.9%	-2.3%	·	?	-3.3%	2.7%
COc1ccccc1OCC(=O)Nc1ccc2c(c1)C(=O)N(CC1CCCO1)C2=O (centres undefined)	·	·	-6.8%	0.5%	·	?	-11.8%	?
c1ccc(C(c2ccccn2)c2ccccn2)cc1	-0.6%	13.1%	8.3%	-10.9%	7.4%	17.5%	1.1%	-20.9%
COC(=O)c1cccc(N(C(=O)c2ccco2)C(C(=O)NC2CCCC2)c2ccc(N3CCOCC3)cc2)c1 (centres undefined)	·	-0.8%[46.1 µM]	18.4%	-1.8%	·	9.4%	-7.5%	-7.8%
COC(=O)C1=C(N)Oc2cc(C)n(CCCn3ccnc3)c(=O)c2C1c1ccc(Cl)cc1 (centres undefined)	-3.1%	?	9.7%	0.7%	-0.2%	-5.9%	-18.4%	-6.2%
O=C(CNC(=O)c1ccc(Br)o1)NC12CC3CC(CC(C3)C1)C2	·	·	3.6%	-2.4%	·	·	-6.9%	41.2%[activator]
CC(C)CC(=O)NC(c1ccccc1Cl)c1c(O)ccc2ccccc12 (centres undefined)	-6.3%	?	9.3%	21.3%	10.3%	?	9.2%	?
CCN1CCC(C(=O)NC2CCCC2)(N(Cc2cccs2)C(=O)Cn2nnc3ccccc32)CC1	12.2%	-0.6%	·	0.6%	3.9%	·	-0.2%	·
O=c1[nH]c(Cc2ccccc2Cl)nc2ccccc12	·	-6.0%[46.1 µM]	-6.9%	1.9%	·	12.4%[46.1 µM]	·	5.5%
O=C(Nc1c(O)c2ccccc2oc1=O)c1cccc(F)c1	-1.3%	12.2%[46.1 µM]	·	·	-14.8%	8.9%[46.1 µM]	·	2.9%
Cc1ccc(-n2nc3c(=O)n(CCCC(=O)NCC(C)c4ccccc4)nc(C)c3c2C)cc1 (centres undefined)	·	·	4.0%	3.9%	·	·	2.8%	?
COC(=O)c1sccc1NC(=O)c1ccc(Br)o1	-7.7%	-0.4%	?	0.6%	0.0%	-8.9%	-67.6%	?
COc1ccc(-c2noc(Cc3cccs3)n2)cc1	-0.3%	?	-21.5%	0.3%	-3.1%	9.2%	-9.5%	45.2%[activator]
O=C(NCCc1c[nH]c2ccc(Cl)cc12)c1ccc([N+](=O)[O-])cc1	·	-2.6%[46.1 µM]	-10.7%	-0.3%	·	-12.9%	3.7%	-0.5%
COc1ccc(Nc2nc(NCc3ccco3)nc(N/N=C/c3ccccc3)n2)cc1	2.9%	11.5%	7.3%	-20.1%	?	-15.2%	22.6%	-19.0%
O=C(COc1ccc(F)cc1F)N1CCCCCCC1	·	-7.9%	5.9%	2.5%	·	4.2%	13.6%	18.6%
COc1cc(CNCCNC(=O)c2nonc2N)ccc1OCc1ccc(Cl)nc1	·	?	-12.3%	-0.4%	·	11.8%	8.6%	-25.1%
CC(=O)N1C(=O)CC(C)N(C(C)=O)c2ccc([N+](=O)[O-])cc21 (centres undefined)	-2.5%	-15.4%	8.6%	-0.8%	0.0%	-0.4%	2.8%	-11.9%
CC1(C)N=C(N)N=C(N)N1c1cccc(CN)c1	·	5.7%[46.1 µM]	-3.7%	3.3%	·	14.1%[46.1 µM]	2.1%	49.5%[activator]
CCCNS(=O)(=O)c1ccc(CCC(=O)NCc2ccco2)cc1	-0.4%	14.7%	8.2%	1.1%	-13.4%	-0.8%	5.1%	12.4%
CN(C)c1ccc(/C=C/c2nc3ccccc3c(=O)n2CCO)cc1	·	·	12.3%	0.0%	·	·	13.4%	-20.0%
O=C(Nc1ccccc1C(=O)N1CCOCC1)c1cccc(S(=O)(=O)N2CCCC2)c1	2.4%	1.9%	13.5%	-2.6%	-9.2%	17.4%	-4.4%	-10.8%
O=C(c1ccccc1)N(c1ccccc1)c1ccccc1O	·	-14.7%	7.0%	·	·	0.0%	·	-13.3%
CCC1=C(C)C(N2CCOCC2)=NP(N2CCOCC2)(N2CCOCC2)=N1	1.3%	-1.1%	5.6%	5.9%	29.3%	18.8%	-2.2%	2.3%
COC(=O)CSc1nc2nc(C)c(Br)cc2[nH]1	-12.1%	-2.7%	-17.6%	-0.5%	7.7%	6.0%	-11.5%	15.1%
COCCNC(=O)CSc1nc2ccccc2nc1Cc1ccc(C)cc1	0.5%	·	·	·	?	4.5%[46.1 µM]	·	-13.4%
CC1(C)CC(NC(=O)c2cc(COc3cccc(C(F)(F)F)c3)on2)CCO1 (centres undefined)	·	·	5.3%	2.6%	·	·	-7.1%	-17.4%
O=C(CN1C(=O)C2C3C=CC(C3)C2C1=O)Nc1nc(SCc2ccc(Cl)cc2)n[nH]1 (centres undefined)	-4.1%	-22.1%	6.0%	1.4%	-3.5%	11.5%	4.8%	-8.9%
CCC(=O)N1c2ccccc2CC1C(=O)NCCCN1CCN(c2cc(C)ccc2C)CC1 (centres undefined)	-0.2%	·	·	·	6.4%	?	·	?
COC1Cc2ccccc2N(C(=O)N2CCN(CCO)CC2)c2ccccc21 (centres undefined)	-0.2%	4.3%	1.3%	?	-3.1%	15.4%	5.0%	-0.7%
COc1ccc2oc(C(=O)Nc3ccc(S(=O)(=O)N(C)C4CCN(C)CC4)cc3)c(C)c2c1	·	·	9.6%	-1.2%	·	·	1.5%	?
O=C(NCCc1c[nH]c2ccccc12)c1cnccn1	·	?	-9.7%	-2.8%	·	-3.9%[46.1 µM]	·	17.7%
Cc1nc(CCNC(=O)c2ccccc2)cs1	-6.6%	3.6%	-22.7%	-3.4%	7.7%	24.0%	-57.5%	30.0%
Cc1c(Cl)c([N+](=O)[O-])nn1CC(=O)NCc1ccco1	-4.8%	9.8%	21.8%	-4.0%	-4.9%	0.9%	1.7%	-7.5%
COc1ccc(-c2ccnc(SCC(=O)N3CCOCC3)n2)cc1	-6.7%	14.6%	12.3%	-10.9%	0.9%	3.9%	-1.3%	·
CCCCOc1ccc(C(=O)NCCS(=O)(=O)N2CCN(c3ccccc3OC)CC2)cc1	-6.3%	·	·	·	?	?	·	14.1µM*
COc1ccc(NCC(=O)N/N=C2\CCc3ccccc32)cc1	·	4.5%[46.1 µM]	-18.4%	-2.6%	·	3.2%[46.1 µM]	·	9.4%
Further structures
SMILES	Cruzain inh Det	Marburg entry inh	RE007 growth inh	SARS PLpro yeast	Cruzain inh noDet	Lassa entry inh	NS1 function inh	StopGo reporter
CC1CCCN(S(=O)(=O)c2cccc(C(=O)OCC(=O)N(C)Cc3c(F)cccc3Cl)c2)C1 (centres undefined)	·	-3.4%	-15.3%	1.0%	·	-0.1%	·	3.7%
CCCC(=O)OCC(=O)c1[nH]c(C)c(C(C)=O)c1C	·	1.1%	1.7%	0.0%	·	?	·	33.7%[activator]
COc1ccccc1C(=O)NCCC(=O)N1CCN(c2ccccc2O)CC1	·	14.1%	-9.9%	-3.6%	·	-20.0%	·	0.0%
Cn1c(=O)c2c(nc(N/N=C/c3c(O)n(C4CCCCC4)c(=S)[nH]c3=O)n2C)n(C)c1=O	·	9.7%	4.8%	20.0%	·	5.4%	7.5%	-21.8%
COc1ccc(C(=O)N=C2SC3CS(=O)(=O)CC3N2Cc2ccccc2)cc1OC (centres undefined)	·	·	4.9%	?	·	·	-5.2%	-6.2%
O=C(CN(C(=O)c1ccc2c(c1)OCCO2)c1ccccc1)NCC1CCCO1 (centres undefined)	8.7%	3.4%[46.1 µM]	-1.2%	-2.6%	-5.3%	9.0%	-6.2%	-15.5%
CCCCOC(=O)Nc1nnc(CC(=O)NCc2ccccc2)s1	·	?	0.7%	9.0%	·	?	-1.5%	-1.4%
COc1ccccc1Oc1coc2cc(OCC(N)=O)ccc2c1=O	·	·	-1.3%	1.1%	·	·	4.2%	-12.2%
CCn1cc(/C=N\NC(=O)c2ccccc2Cl)cn1	-2.9%	0.9%	-3.7%	9.4%	0.2%	13.0%	2.9%	3.7%
O=C(CN1CCN(c2ccccn2)CC1)Nc1ccc(OCc2ccccc2)cc1	-3.5%	-27.0%	-16.7%	6.0%	-3.7%	?	-104.5%	?
